High-throughput results deposited in PubChem by ICCB-Longwood Screening Facility, Harvard Medical School.
Sa growth inh – S. aureus growth inhibition. 170,000 tested, 0.53% active. AID 720641. relative growth, % (test concentration not listed). S. aureus RN4220 growth, OD600, 20 h, 42 °C; hits give low values;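 active = growth at 42 °C up to 50% and 20 or more points under that at 30 °C, or under 10% at both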;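 note: 300 nL library stock went into each well; scaled to the means of positive and negative controls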
GIV Gai3 FP – GIV-Galpha-i interaction inhibition; percent of control (FP), % (concentration not given with the values); P08753; 210,000 tested, 0.42% active; Galpha-i3/FITC-GIV peptide fluorescence polarization, 90 min; hits give low values; scaled: aluminum fluoride 0%, vehicle 100%;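 active = replicate mean at 85% of control or lower, very high polarization wells dropped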;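 note: wells of about 15 µL received 100 nL stock; the first replicate is given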
Target sequence (P08753 whole entry, looked up): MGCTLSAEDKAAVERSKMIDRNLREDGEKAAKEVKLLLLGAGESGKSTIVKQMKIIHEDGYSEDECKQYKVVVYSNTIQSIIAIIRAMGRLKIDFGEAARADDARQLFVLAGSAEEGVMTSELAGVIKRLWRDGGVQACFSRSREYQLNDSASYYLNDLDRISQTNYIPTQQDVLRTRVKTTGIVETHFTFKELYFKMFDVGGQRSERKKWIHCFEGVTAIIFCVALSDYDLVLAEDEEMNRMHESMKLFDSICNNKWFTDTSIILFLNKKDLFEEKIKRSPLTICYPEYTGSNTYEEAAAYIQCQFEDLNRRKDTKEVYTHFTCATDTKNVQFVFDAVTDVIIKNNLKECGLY
HCMV NEC inh – cytomegalovirus nuclear egress complex inhibition; HTRF UL50-UL53 interaction, normalized percent inhibition; inhibition, % (no concentration beside the values); 190,000 tested, 0.15% active; AID 1918969;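 active = both replicates at 50% or more, plus weaker picks with an unusually low signal ratio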;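 note: stock transfer was 100 nL into about 20 µL; 0% = negative control wells and 100% = wells with untagged competitor protein; inactives centre near -12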
Sa growth inh second temp – second read-out of Sa growth inh, no call of its own (marks repeat the call); relative growth, %; measured here: growth at 30 °C;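 optical density after 20 h as mean of two plates; 100% = untreated growth and lower means inhibition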
Numbers without * were called inactive; x = not tested or not shown.

#	structure	Sa growth inh	Sa growth inh second temp
1	COC(=O)c1cc(C)nc2c1c(=O)nc(SCc1cccc(C(F)(F)F)c1)n2C1CC1	84	98
2	COc1cc2c3nc4n(c(=O)c3n(CC(=O)NCc3ccco3)c2cc1OC)CCS4	106	91
3	O=C(CN1C(=O)c2ccccc2S1(=O)=O)N1CCc2ccccc21	85	87
4	O=C(CC1CCCCC1)Nc1ccc(F)cc1	82	90
5	C=CCNC(=O)COc1nc(-c2cccs2)cc(C(F)(F)F)n1	102	86
6	Cc1c(Cl)ccc2sc(N3CCN(C(=O)CCS(=O)(=O)c4ccc(F)cc4)CC3)nc12	122	100
7	O=[N+]([O-])c1ccc(N2N=C(c3ccc(O)cc3)CC2c2ccc(F)cc2)cc1 (stereo unspecified)	x	x
8	CC(=O)c1ccc(NC(=O)CC(c2cccs2)N2Cc3ccccc3C2=O)cc1 (stereo unspecified)	111	82

#	GIV Gai3 FP	HCMV NEC inh
1	96	x
2	104	-22
3	x	-12
4	98	-3
5	101	x
6	97	x
7	255	-3
8	107	x

(further entries)
#	structure	Sa growth inh	Sa growth inh second temp
9	O=C(O)C1C2C=CC(O2)C1C(=O)NCCc1cccc(Cl)c1 (stereo unspecified)	115	90
10	CC(=O)Nc1ccc(NC(=O)CCNS(=O)(=O)c2cccc3nsnc23)cc1	115	90
11	CCc1nnc(NC(=O)c2ccc3c(c2)[nH]c(=O)c(=O)n3CC)s1	103	92
12	O=C(c1ccccc1-c1nc(-c2ccc(F)cc2)no1)N1CCCC1	x	x
13	O=CNCc1ccc(F)cc1	108	99
14	Clc1ccccc1N1CCN(C2=Cc3ccccc3CC2)CC1	91	83
15	COCCOC(=O)C1=C(C)NC(C)=C(C(=O)OCCOC)C1c1cn(-c2ccccc2)nc1-c1ccccc1	x	x
16	CN(CC(=O)N1CCC(Cc2ccccc2)CC1)S(=O)(=O)c1cccs1	95	69

#	GIV Gai3 FP	HCMV NEC inh
9	104	-5
10	104	-92
11	x	-5
12	100	-10
13	x	-1
14	101	-9
15	98	18
16	x	-18

(further entries)
#	structure	Sa growth inh	Sa growth inh second temp
17	CCCNCc1cccn1-c1nnc(N2CCCC2)s1	96	51
18	Cc1ccc(C2c3c(-c4ccccc4O)n[nH]c3C(=O)N2CCCO)cc1 (stereo unspecified)	102	85
19	Cn1cccc1C=C1C(=O)c2ccccc2C1=O	93	64
20	COc1ccc(N2C(=O)CCS2(=O)=O)cc1S(=O)(=O)NCCc1c[nH]c2ccccc12	x	x
21	CC1=C(c2ccc(Cl)cc2)S(=O)(=O)NC1=NCc1ccc(C)cc1	123	88
22	O=C(CSc1nnc(Cn2c(=O)sc3ccccc32)n1-c1ccccc1)Nc1ccccc1F	109	88
23	CC(C)c1ccc(NC(=O)C2CCCN(S(=O)(=O)c3cccc4nonc34)C2)cc1 (stereo unspecified)	109	100
24	Cc1nc2ccccc2c(=O)n1Cc1noc(C(=O)NCCC2=CCCCC2)n1	x	x

#	GIV Gai3 FP	HCMV NEC inh
17	109	-24
18	96	-9
19	111	-82
20	98	-6
21	102	-28
22	101	1
23	107	-4
24	104	-35

The list continues.
#	structure	Sa growth inh	Sa growth inh second temp
25	Cc1noc(C)c1S(=O)(=O)N1CCN(c2cc(-c3ccc(F)cc3)ncn2)CC1	x	x
26	CC1CCCCN1C(=O)NC12CC3CC(CC(C3)C1)C2 (stereo unspecified)	111	103
27	C/C=C/Cn1c(N2CCCCC2)nc2c1c(=O)[nH]c(=O)n2C	x	x
28	O=C(c1ccco1)N(C(=O)c1ccco1)c1nc2ccccc2nc1N1CCOCC1	93	97
29	Cc1ccc(S(=O)(=O)NC(=O)N2CCCc3cc(SC#N)ccc32)cc1	73	89
30	COc1ccc(OC)c(C(=O)c2c(N)c(-c3nc(-c4ccccc4OC)cs3)c3ccccn23)c1	x	x
31	CC1CCN(C(=O)COC(=O)c2sc3ccccc3c2Cl)CC1	117	95
32	Cc1cccc(NC(=O)C(Cc2ccccc2)NS(=O)(=O)c2cccc3cccnc23)c1 (stereo unspecified)	108	78

#	GIV Gai3 FP	HCMV NEC inh
25	102	-24
26	109	-35
27	105	4
28	x	-39
29	x	-15
30	98	-13
31	x	-5
32	102	x

The list goes on:
#	structure	Sa growth inh	Sa growth inh second temp
33	O=C(CSc1oc(-c2ccc(Cl)cc2)nc1S(=O)(=O)c1ccccc1)N1CCCC1	94	91
34	Cn1ncc2c(NNC(=S)Nc3ccc(F)cc3F)ncnc21	95	91
35	CCOC(=O)c1cc(-c2ccc(OC)cc2)nn1Cc1ccccc1	x	x
36	CC(Sc1cccc[n+]1[O-])C(=O)N1CCN(C(=O)c2ccco2)CC1 (stereo unspecified)	89	96
37	O=C(CSCc1ccccc1Cl)N/N=C/c1ccco1	95	83
38	O=C(Nc1ccccc1)Nc1ccc(Br)cc1	95	77
39	O=C(Cc1coc2cc3c(cc12)CCC3)OCCN1CCCC1=O	100	95
40	O=C(O)CCC(=O)N1CCNC(=O)C1	103	86

#	GIV Gai3 FP	HCMV NEC inh
33	x	-7
34	104	-16
35	109	-6
36	x	-2
37	104	-32
38	104	x
39	x	-13
40	x	-8

Compound profiles, as listed above.
Record of CN(CC(=O)N1CCC(Cc2ccccc2)CC1)S(=O)(=O)c1cccs1 : Sa growth inh: 95; Sa growth inh second temp: 69; GIV Gai3 FP: x; HCMV NEC inh: -18
Record of O=[N+]([O-])c1ccc(N2N=C(c3ccc(O)cc3)CC2c2ccc(F)cc2)cc1 (stereo unspecified) : Sa growth inh: x; Sa growth inh second temp: x; GIV Gai3 FP: 255; HCMV NEC inh: -3
Record of O=C(c1ccccc1-c1nc(-c2ccc(F)cc2)no1)N1CCCC1 : Sa growth inh: x; Sa growth inh second temp: x; GIV Gai3 FP: 100; HCMV NEC inh: -10

Following part
#	structure	Sa growth inh	Sa growth inh second temp
41	CC(=O)N1c2ccc(S(=O)(=O)N3CCCC3C(=O)NCc3ccc(F)cc3)cc2CC1C (stereo unspecified)	x	x
42	O=C(CC1CCCCC1)NCc1ccco1	110	83
43	CC(=O)c1cccc(Nc2ccc3cc(S(=O)(=O)N4CCC(C)CC4)ccc3n2)c1	78	91
44	Cc1ccc(-n2nc(N3CCCN(C(=O)c4ccc(-n5c(C)ccc5C)cc4)CC3)ccc2=O)cc1C	x	x
45	Cc1ccc(NC(=O)N2CCN(c3cc(-c4noc(C)n4)ccc3C)CC2)c(F)c1	88	84
46	O=C(Nc1ccc(Cl)cc1)OCc1nccn1Cc1ccc(Cl)cc1	110	86
47	CCc1ccc(/C=N/n2c(C)nnc2-n2nc(C)cc2C)cc1	87	82
48	N#Cc1c(C(F)(F)F)nc2sc3ccccc3n2c1=N	90	86

#	GIV Gai3 FP	HCMV NEC inh
41	108	-11
42	97	-8
43	107	x
44	97	-26
45	105	x
46	102	-33
47	110	x
48	x	-17

Additional records follow.
#	structure	Sa growth inh	Sa growth inh second temp
49	CC(=O)Nc1ccccc1-c1nc2ccc(C(=O)NC3CCCCC3C)cc2[nH]c1=O (stereo unspecified)	102	93
50	COc1ccc(C2C(=O)N(C3CCCCCC3)CC(=O)N2Cc2ccc(C)cc2)cc1OC (stereo unspecified)	107	86
51	Nc1c(C(=O)Nc2ccc(S(N)(=O)=O)cc2)sc2nc3c(cc12)CCCCCC3	88	65
52	COc1ccccc1-c1cc(C(=O)Nc2cccc3nsnc23)[nH]n1	x	x
53	COc1cc2c(cc1OC)CN(C(=O)c1sc(-c3cnccn3)nc1C)CC2	93	98
54	O=C(Cc1csc2ccccc12)NCc1ccc(F)cc1	112	94
55	CC(=O)c1cccc(NC(=O)c2nc(-c3ccccc3)n(-c3ccccc3)n2)c1	96	93
56	Cc1ccc2c(c1)NNc1nncn1-2	74	72

#	GIV Gai3 FP	HCMV NEC inh
49	103	-2
50	107	x
51	103	-8
52	91	8
53	106	-13
54	108	-12
55	100	-15
56	100	-207

(list continues)
#	structure	Sa growth inh	Sa growth inh second temp
57	COC(=O)c1ccc2c(c1)CCO2	103	99
58	COc1ccc(-n2c3c(cc(C(N)=O)c2=O)C(=O)CC(C)(C)C3)cc1	125	88
59	O=C(N/N=C/c1ccco1)c1ccc(CSc2nc3ccccc3s2)cc1	96	95
60	CN(C1CCCCC1)S(=O)(=O)c1ccc2c(c1)c(=O)c(C(=O)N1CCN(c3ccc(F)cc3)CC1)cn2C	95	90
61	COc1ccc(OC)c(NC(=O)CNc2cc(OC)c(Cl)cc2OC)c1	79	96
62	O=C(CCC1N=C2c3ccccc3N=C(SCc3cccc(Cl)c3)N2C1=O)N1CCN(c2ccccc2)CC1 (stereo unspecified)	111	78
63	COc1ccc(-c2nc(CSc3nc4c(c(=O)[nH]3)CN(Cc3ccc(Cl)cc3)CC4)c(C)o2)cc1	x	x
64	COc1cc(/C=C2\SC(=O)N(Cc3ccc(F)cc3)C2=O)cc(OC)c1OC	x	x

#	GIV Gai3 FP	HCMV NEC inh
57	102	17
58	96	x
59	x	-32
60	101	-19
61	x	-11
62	106	-17
63	104	-29
64	101	-13

Continued:
#	structure	Sa growth inh	Sa growth inh second temp
65	Cc1[nH]c(=O)[nH]c(=O)c1Oc1ccccc1	96	93
66	CC(N)CCCc1ccccc1 (stereo unspecified)	131	93
67	c1ccc(C2Nc3ccccc3C3OCCC23)cc1 (stereo unspecified)	108	76
68	COc1ccc(OC)c(-c2noc(CSc3nnc(-c4ccccc4)n3-c3ccccc3)n2)c1	105	85
69	Cc1cc(C)c(/C=C/c2onc(C)c2S(=O)(=O)N2CCC(C(=O)NCCc3ccccc3)CC2)c(C)c1	94	92
70	Cc1ccc(NC(=O)C2CCCN2S(=O)(=O)c2ccc3c(c2)CCCC(=O)N3)cc1C (stereo unspecified)	72	87
71	CCN(Cc1ccccc1)C(=O)CN1C(=O)COc2ccc(S(=O)(=O)N(CC)CC)cc21	106	78
72	COc1ccc(-n2c(N(C(C)=O)C(C)=O)c(C#N)c3nc4ccccc4nc32)cc1	84	91

#	GIV Gai3 FP	HCMV NEC inh
65	103	2
66	101	-1
67	99	-18
68	101	-36
69	99	x
70	96	x
71	104	-8
72	x	-65

(cont.)
#	structure	Sa growth inh	Sa growth inh second temp
73	O=C(CN1N=C(c2ccccc2F)c2cc(Cl)ccc2S1(=O)=O)NCCc1ccccc1	x	x
74	Cc1cc(C)cc(-n2nnc(C(=O)OCc3ccccc3C)c2C)c1	x	x
75	C=CCn1c(=O)c2c(nc3n2CCS3)n(C)c1=O	x	x
76	Clc1ccc(Cc2nnc3sc(-c4ccc5ccccc5n4)nn23)cc1	x	x
77	CCCN(Cc1nnc(-c2ccco2)o1)C(=O)c1ccc2c(c1)CC(c1ccccc1)OC2=O (stereo unspecified)	90	92
78	CCc1c(O)c2ccccc2oc1=O	127	98
79	CSc1nnc(C)c(=O)n1COC(=O)c1ccccc1	104	88
80	CC1=C(C(=O)OC2CCCCCC2)C(c2ccc(Cl)c(Cl)c2)NC(=O)N1C (stereo unspecified)	x	x

#	GIV Gai3 FP	HCMV NEC inh
73	100	-4
74	105	-11
75	108	-24
76	114	-1
77	x	-7
78	106	6
79	104	-2
80	105	14

Additional records follow.
#	structure	Sa growth inh	Sa growth inh second temp
81	Cc1cc(CSc2nc(C)cc(C)n2)c2ncccc2c1	72	86
82	CCCN1CCN(C(=O)c2ccccc2CSc2ncn[nH]2)CC1	82	93
83	OCCn1c(Cc2ccccc2)nc2ccccc21	89	62
84	ON=C1CCN(c2ncc(C(F)(F)F)cc2Cl)CC1	x	x
85	CCOc1cc(C2C3=C(CC(c4ccc(O)c(OC)c4)CC3=O)Nc3onc(C)c32)ccc1OC (stereo unspecified)	x	x
86	O=c1[nH]cc[nH]c1=O	x	x
87	CCN(CC)c1ccc2cc(C(=O)Nc3ccccc3)c(=N)oc2c1	110	92
88	COc1ccc(OC)c(NC(=O)c2c(N3CCCC3=O)c3cc(OC)ccc3n2C)c1	105	84

#	GIV Gai3 FP	HCMV NEC inh
81	x	-28
82	x	-24
83	x	-91
84	105	-12
85	101	-15
86	98	-10
87	73*	x
88	106	x

Later entries
#	structure	Sa growth inh	Sa growth inh second temp
89	Cc1nc(-c2ccc(NC(=O)c3cc4cc(Br)ccc4oc3=O)cc2)cs1	x	x
90	O=C(CC1C(=O)NCCN1C(=O)Nc1ccccc1)Nc1ccc(F)cc1 (stereo unspecified)	90	84
91	COC(=O)c1ccc(S(=O)(=O)N2CCCN(Cc3ccc(F)cc3)CC2)n1C	93	90
92	CC1Sc2cc(S(=O)(=O)C(C)CC(=O)N3CCc4ccccc43)ccc2NC1=O (stereo unspecified)	81	80
93	O=C(COC(=O)c1ccc(CO)cc1)c1ccc(OC(F)F)cc1	91	85
94	Cc1nn2c(C)c(C(=O)NCC(C)c3ccccc3)cnc2c1-c1ccccc1 (stereo unspecified)	108	81
95	CCN1CCN(c2nc3ccccc3nc2C(C#N)C(=O)OCc2ccccc2)CC1 (stereo unspecified)	105	60
96	COc1ccc2c(CNC3CCC(C)CC3)c(C(=O)O)n(Cc3ccccc3)c2c1 (stereo unspecified)	91	73
97	O=C(c1cc(Br)cc2c1OCC2)N1CCOCC1	107	90
98	CCn1ccc2cc(S(=O)(=O)N3CCC(C(=O)NCCOC)CC3)ccc21	89	89

#	GIV Gai3 FP	HCMV NEC inh
89	106	-11
90	105	-33
91	105	-30
92	99	x
93	x	-6
94	105	x
95	122	-106
96	102	x
97	108	-8
98	104	x
